26S disassembly = blocks ATP-dependent breakdown of the yeast 26S proteasome; anti-FLAG beads, GFP-proteasome disassembly, flow cytometry; inhibition of disassembly, % (no concentration beside the values); 0.2% of 24,000 active;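 active = above 40%; inconclusive = likely self-fluorescent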;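 note: plate controls were ATP control with full disassembly for no effect and ATP-gamma-S intact proteasomes for full effect; higher percent means more bead fluorescence retained so stronger block of disassembly; stock transfer was 100 nL into about 10 µL; wells with too few beads may also be inconclusive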
VCAM-1 up = enhancers of VCAM-1 display on endothelial cells, cell-based, plate reader, pooled HUVEC, TNFa stimulus (AID 455) | 0.2% of 10,000 active | augmentation, % at 5 µM | HUVEC TNFa-induced VCAM-1 immunofluorescence, plate reader; numbers were filed only for top-ranked candidate wells;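 active = a compound raising TNF-alpha-driven VCAM-1 surface staining, with its hit status upheld on visual or statistical review; inactive = the rest, including hits rejected on review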;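 note: 0% = TNFa with vehicle and 100% = strongest image-checked hit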
Starred values were filed as active, the others as inactive; i = inactive; ? = inconclusive; . = no result given. Some of the compounds tested; the hit share may differ from the screen's.

Values run as follows: 26S disassembly, VCAM-1 up
1: CC1CCN(S(=O)(=O)c2ccc3c(c2)oc(=O)n3CC(=O)NCc2ccc3c(c2)OCO3)CC1
  4.2, .
2: COc1ccccc1-n1c(=O)c2c3c(sc2n2c(SC(C)C)nnc12)CCC3
  3.8, i
3: CNCCCC1c2ccccc2C=Cc2ccccc21
  0.0, i
4: CCN(CCCNC(=O)c1c(C)cc(=O)oc1C)c1cccc(C)c1
  -1.3, .
5: N#CCCN1CCN(S(=O)(=O)c2ccc(S(=O)(=O)N3CCCC3)cc2)CC1
  0.6, .
6: CCOC(=O)C(NC(=O)c1ccc(OC)cc1)(N1CCOCC1)C(F)(F)F (stereo not given)
  -2.5, i
7: COc1cccc(-n2c(Cc3cc(=O)[nH]c(=O)[nH]3)nnc2SCc2cccnc2)c1
  1.4, .
8: CCn1c(=O)cc(SCC(=O)NCc2cccnc2)c2ccccc21
  -1.3, .
9: COc1ccc(N=C2SCC(=O)N2c2ccc(OC)cc2)cc1
  -0.8, .
10: CC1CCCN(CCCNC(=O)c2coc3nc4ccccc4nc23)C1 (stereo not given)
  ?, .
11: Cn1c(=O)c2c(nc(NCCc3ccccc3)n2CC(=O)NCCc2ccccc2)n(C)c1=O
  -1.8, i
12: Cc1noc(C)c1C(=O)OCC(=O)Nc1ccccc1C(=O)NC(C)c1ccccc1 (stereo not given)
  0.0, i
13: O=C(CSc1nnc(Cn2c(=O)sc3ccccc32)n1-c1ccccc1)N1CCOCC1
  2.7, .
14: CCOC(=O)CSc1nnnn1-c1cc(OC)c(Cl)cc1OC
  6.1, .
15: COc1cc(CN2CCN(C(=O)CC(C)C)CC2)cc(OC)c1O
  1.8, i
16: COCCCNC(=O)Cn1ncc2c(=O)oc3ccccc3c21
  -1.1, .
17: COc1ccc(C2C=C(c3ccc(Br)s3)Nc3ncnn32)cc1OC (stereo not given)
  3.6, .
18: Cc1nc2cccc(C(=O)NCc3ccccc3)c2o1
  1.1, .
19: CC(=O)Nc1nc(C)c(-c2csc(Nc3ccc(O)cc3)n2)s1
  0.1, i
20: COc1ccccc1-n1cnc2cc(C(=O)NCCCN3CCOCC3)ccc21
  -0.7, .
21: Cc1nc(/N=C\N(C)C)sc1C(=O)Nc1ccccc1
  1.4, i
22: COc1ccccc1N1CCN(C(=O)c2cc(-c3ccco3)on2)CC1
  2.3, .
23: CCC(=O)N1CCc2cc(S(=O)(=O)CCC(=O)Nc3ccc(CC)cc3)ccc21
  -1.8, .
24: O=S1(=O)CCC(NS(=O)(=O)/C=C/c2ccccc2)C1 (stereo not given)
  0.2, i
25: Cc1ccc2oc(=O)c3cnn(CC(=O)NCCN(C)C)c3c2c1
  14.3, .
26: CCN(CC)S(=O)(=O)c1ccc2oc(C(=O)NC(C)C)c(C)c2c1
  0.6, .
27: Cc1ccccc1-c1nc(CS(=O)(=O)CC(=O)NCCCN2CCCC2=O)c(C)o1
  0.4, .
28: Cn1c(C(=O)NCCN2CCc3ccccc3C2)cc2c(=O)n(C)c3ccccc3c21
  7.3, .
29: CCOC(=O)N1CCC(c2nc(C)sc2C(=O)O)CC1
  -1.1, .
30: CCOC(=O)N1CCN(C(=O)CCn2c(=S)[nH]c3cc(OCC)c(OCC)cc3c2=O)CC1
  0.8, .
31: COc1ccccc1NC(=O)CN1CCN(CC(=O)Nc2ccccc2F)CC1
  0.2, .
32: O=C(Nc1cccnc1)c1cc(-c2cccs2)on1
  0.5, .
33: CC(=O)c1cccc(NC(=O)C2CCCN2S(=O)(=O)c2cccc3cccnc23)c1 (stereo not given)
  -0.6, .
34: CCOc1ccc(-n2c(=S)sc3c(=O)[nH]c(SCC(=O)NCc4ccco4)nc32)cc1
  1.4, .
35: COc1ccc(CCNC(=O)c2ccn[nH]2)cc1OC
  -0.9, .
36: CN1CCN(C(=O)Cn2c(=O)oc3cc(S(=O)(=O)NCc4ccccc4)ccc32)CC1
  0.3, .
37: COc1ccccc1CNC(=O)CCn1c(=O)sc2ccccc21
  -1.8, .
38: CC1(C)CC(=O)c2cc(OCC(=O)NCCN3CCCc4ccccc43)ccc2O1
  0.6, .
39: COc1ccc(S(=O)(=O)Nc2cccc(C)n2)c2ccccc12
  -0.6, i
40: O=C(CN1CCCC1)Nc1ccc(NC(=O)Nc2ccccc2)cc1
  -1.5, i
41: COc1ccc(S(=O)(=O)Cc2ccc(C(=O)N3CCc4ccccc4C3)o2)cc1
  -0.6, .
42: O=c1cc(Nc2ccc3c(c2)OCCO3)[nH]c(=O)n1C1CCCCC1
  107.9*, .
43: COc1cccc2c1OC1(C)CC2NC(=O)N1c1cccc(C(=O)N2CCN(c3ccccn3)CC2)c1 (stereo not given)
  -1.4, .
44: CC(=O)NCCCCCCNC(C)=O
  -0.5, i
45: Nc1nc(F)nc2c1ncn2[C@@H]1O[C@H](CO)[C@@H](O)[C@@H]1O
  -0.4, i
46: COc1ccc(CNC(=O)c2onc(C)c2Cl)cc1
  124.2*, .
47: CCCOc1ccc2oc(=O)c3c(c2c1)CCCN3C(=O)CN1CCN(c2ncccn2)CC1
  -1.7, .
48: Cc1ccc(S(=O)(=O)c2nc(-c3cccs3)oc2SCC(N)=O)cc1
  0.7, .
49: CCN1CCN(C(=O)c2ccc3c(=O)n(CCC4=CCCCC4)c(=O)[nH]c3c2)CC1
  -0.4, i
50: CC(C)NC(=O)CCCc1cn(C)c2ccccc12
  0.2, .

Continued.
Values run as follows: 26S disassembly, VCAM-1 up
51: CCN(c1ccccc1)S(=O)(=O)c1ccc2[nH]cc(C(=O)NCCOC)c(=O)c2c1
  -0.8, .
52: CCOC(=O)CSc1nc2sc(C)c(C)c2c(=O)[nH]1
  3.5, i
53: CCOC(=O)c1nnn(-c2nc(N3CCCC3)nc(N3CCCC3)n2)c1-c1ccccc1
  0.0, .
54: Cc1csc2nc(CSc3nc4ccccc4o3)c(Br)n12
  -1.3, i
55: CCN(CCNC(=O)CC1Oc2ccccc2NC1=O)c1ccccc1 (stereo not given)
  -1.2, .
56: CCOC(=O)c1ccc(CC2S/C(=C(\C#N)C(C)=O)NC2=O)cc1 (stereo not given)
  -0.2, i
57: Cn1c(C(=O)N2CCC(C(=O)N3CCOCC3)CC2)cc2sccc21
  -0.3, .
58: CCC1CCCCN1CCCNC(=O)c1cn(CC(C)C)c(=O)c2cc(OC)c(OC)cc12 (stereo not given)
  3.1, .
59: COc1ccc(C2c3c(oc4ccccc4c3=O)C(=O)N2c2ccc(C)cn2)cc1OC (stereo not given)
  -0.5, i
60: Cc1ccccc1S(=O)(=O)Cc1ccc(C(=O)N2CCN(c3cccc(C)c3C)CC2)o1
  0.4, .
61: CCOC(=O)c1c(-c2ccccc2)nnn1-c1nc(OCC)nc(N2CCCCC2)n1
  0.1, .
62: CCCCn1c(NCc2ccccc2O)nc2ccccc21
  -0.2, i
63: CCOc1ccc(C(=O)CN2CCN(S(=O)(=O)c3ccc(F)cc3)CC2)cc1
  -0.3, .
64: CCOC(=O)N1CCN(CC(O)COc2ccccc2C(C)C)CC1 (stereo not given)
  0.2, .
65: COc1ccccc1C(=O)NCC(=O)Nc1ccccc1
  6.1, i
66: COc1cccc(C2=NOC(C(=O)NCc3ccco3)C2)c1 (stereo not given)
  -0.5, .
67: O=C(C1CCN(S(=O)(=O)N2CCC3(CC2)OCCO3)CC1)N1CCc2ccccc2C1
  -0.5, .
68: COc1cccc(NC(=O)CN(c2ccc(C)cc2)S(=O)(=O)c2c(C)nn(C)c2C)c1
  -1.6, .
69: O=C(CN1C(=O)CCS(=O)(=O)c2ccccc21)Nc1cccc(Cl)c1
  -0.4, .
70: CCN(CCCNC(=O)C1CCC(=O)N1C1CCCC1)c1cccc(C)c1 (stereo not given)
  5.9, .
71: O=C(c1ccc2c(c1)[nH]c(=S)n1c3ccccc3nc21)N1CCN(c2ncccn2)CC1
  0.0, i
72: O=C(O)CSCc1cnn(-c2ccccc2)c1-n1cccc1
  0.6, .
73: CCc1ccc(N/C(SCc2cccc(F)c2)=C(/C#N)C(=O)NCc2ccco2)cc1
  2.5, .
74: CCOc1ccc(CNC(=O)C2CCCN(S(C)(=O)=O)C2)cc1OC (stereo not given)
  0.2, i
75: Cc1cc(C(=O)Nc2nc3c(s2)CCCC3)cs1
  2.3, i
76: Cc1nc2ccccn2c1/C(O)=C1\C(=O)C(=O)N(CCCN(C)C)C1c1ccc(Cl)cc1 (stereo not given)
  -0.3, .
77: CCOC(=O)C1CCCCN1C(=O)CCc1c(C)nc2cc(-c3ccccc3)nn2c1C (stereo not given)
  0.4, .
78: COc1ccc(CCNC(=O)Cn2cnc3c(nnn3Cc3ccccc3F)c2=O)cc1OC
  0.1, .
79: CC(=O)Nc1ccc(-c2cc3ccccc3o2)cc1
  -2.2, i
80: CCOC(=O)C1CCN(C(=O)c2n[nH]c(=O)c3ccccc23)CC1
  -0.8, .

Molecules from the list above with a COOH group (2):
Values run as follows: 26S disassembly, VCAM-1 up
29: CCOC(=O)N1CCC(c2nc(C)sc2C(=O)O)CC1
  -1.1, .
72: O=C(O)CSCc1cnn(-c2ccccc2)c1-n1cccc1
  0.6, .

Next section
Values run as follows: 26S disassembly, VCAM-1 up
81: N#CC1=C(N)OC2=C(C(=O)CCC2)C1CCc1ccccc1 (stereo not given)
  1.9, i
82: O=C(CSc1nc2ccccc2c(=O)n1CCC(=O)N1CCCCC1)NCc1ccccc1
  -1.9, i
83: CCCc1cc(=O)oc2cc(C)cc(OC(=O)c3ccco3)c12
  1.3, i
84: Cc1ccc(N(CC(=O)NCc2ccc3c(c2)OCO3)S(=O)(=O)c2c(C)noc2C)cc1
  -2.3, .
85: CCOc1cc2oc(=O)c3c(c2cc1Cl)CCC3
  -1.3, i
86: CC(C)Sc1nc(N2CCCC2)c2c(c1C#N)CC(C)(C)OC2
  1.0, i
87: Cc1cc(C)cc(NC(=O)C2CCCN(c3nccc(C)n3)C2)c1 (stereo not given)
  -1.0, i
88: C[C@H](NC(=O)Nc1ccccc1F)C(=O)O
  1.4, i
89: S=C1SCN(CCN2CCOCC2)CN1Cc1ccccc1
  -3.9, .
90: O=C(CNC(=O)c1cccs1)NCCN1CCN(Cc2ccccc2)CC1
  0.0, .
91: C=CCn1cc(C(=O)NCc2ccco2)c(=O)c2cc(S(=O)(=O)N3CCCCCC3)ccc21
  0.9, .
92: COc1cc(NC(=O)c2cc(C(C)C)on2)cc(OC)c1OC
  0.1, .
93: C=CCSc1nnc(Cc2cc(=O)[nH]c(=O)[nH]2)n1-c1cc(C)ccc1C
  -1.0, .
94: COc1ccc(S(=O)(=O)NC(C)C(=O)Nc2cccc(C(C)=O)c2)cc1 (stereo not given)
  3.4, i
95: COC(=O)c1ccnc(/C=N/O)c1
  1.3, i
96: O=P(O)(O)C(O)C(F)(F)C(F)(F)C(F)(F)C(F)F (stereo not given)
  -0.4, i
97: O=c1c2cccnc2[nH]c(=S)n1CCCN1CCN(c2ccc(F)cc2)CC1
  0.1, .
98: COc1cccc(CNC(=O)c2nnn(CC(=O)Nc3ccc(C)c(C)c3)c2N)c1
  -0.5, .
99: N#Cc1ccccc1NC(=O)Nc1cccs1
  0.8, .

Of the compounds above, these have a halogen.
Values run as follows: 26S disassembly, VCAM-1 up
6: CCOC(=O)C(NC(=O)c1ccc(OC)cc1)(N1CCOCC1)C(F)(F)F (stereo not given)
  -2.5, i
14: CCOC(=O)CSc1nnnn1-c1cc(OC)c(Cl)cc1OC
  6.1, .
17: COc1ccc(C2C=C(c3ccc(Br)s3)Nc3ncnn32)cc1OC (stereo not given)
  3.6, .
31: COc1ccccc1NC(=O)CN1CCN(CC(=O)Nc2ccccc2F)CC1
  0.2, .
45: Nc1nc(F)nc2c1ncn2[C@@H]1O[C@H](CO)[C@@H](O)[C@@H]1O
  -0.4, i
46: COc1ccc(CNC(=O)c2onc(C)c2Cl)cc1
  124.2*, .
54: Cc1csc2nc(CSc3nc4ccccc4o3)c(Br)n12
  -1.3, i
63: CCOc1ccc(C(=O)CN2CCN(S(=O)(=O)c3ccc(F)cc3)CC2)cc1
  -0.3, .
69: O=C(CN1C(=O)CCS(=O)(=O)c2ccccc21)Nc1cccc(Cl)c1
  -0.4, .
73: CCc1ccc(N/C(SCc2cccc(F)c2)=C(/C#N)C(=O)NCc2ccco2)cc1
  2.5, .
76: Cc1nc2ccccn2c1/C(O)=C1\C(=O)C(=O)N(CCCN(C)C)C1c1ccc(Cl)cc1 (stereo not given)
  -0.3, .
78: COc1ccc(CCNC(=O)Cn2cnc3c(nnn3Cc3ccccc3F)c2=O)cc1OC
  0.1, .
85: CCOc1cc2oc(=O)c3c(c2cc1Cl)CCC3
  -1.3, i
88: C[C@H](NC(=O)Nc1ccccc1F)C(=O)O
  1.4, i
96: O=P(O)(O)C(O)C(F)(F)C(F)(F)C(F)(F)C(F)F (stereo not given)
  -0.4, i
97: O=c1c2cccnc2[nH]c(=S)n1CCCN1CCN(c2ccc(F)cc2)CC1
  0.1, .

Compound activity from PubChem BioAssay.
